LT uptake inh: inhibitors of anthrax lethal toxin internalization. Cells, anthrax lethal toxin internalization, FRET ratio (460/530). Potency, µM (series often up to 40 µM), inactives show at the top dose activity change, negative = inhibition, usual class: inhibitors. 0.67% of 70,000 active; active = well fitted falling ratio curve with the 530 nm signal flat; inconclusive = other ratio curves, or a change in one channel alone; inactive = flat curves in the ratio and both channels; the % refers to the ratio; further: on the % scale 0 is the no-effect control and ±100 the full control effect; nearly all actives have a fitted effect of over 50% in size; tested in ME-180 cells; beta-lactamase reporter
SmPrx2 inh: Schistosoma mansoni Prx2 inhibition; S. mansoni Prx2 activity coupled to TGR/GSH (TGR is thioredoxin glutathione reductase), NADPH fluorescence loss, qHTS; some inactives read as strong as hits; Potency, µM; 0.07% of 65,000 active; active means full or partial inhibition curve with a strong effect at the top dose; inconclusive means weaker partial or single-point curve; inactive means no accepted curve; further: series up to 57 µM; many of its hits are not listed in these tables
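Activity is read as the drop in NADPH fluorescence (365/450 nm), recorded every 30 sec for 8 min after H2O2 addition. Prx2 is coupled to TGR-driven NADPH oxidation through glutathione, in phosphate buffer pH 7.4.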
Numbers without * were called inactive; u = inconclusive; x = not tested or not shown; & = joins results of further samples; [ ] = another dose, or the depositor's remark. Potency means the concentration at half of the fitted maximal effect.

SMILES,LT uptake inh,SmPrx2 inh
CCCCC(c1nnnn1C1CCCC1)N1CCN(C2CCCCC2)CC1 (stereo not given),-4.5%,>57
CCn1cc(C(C)NC(=O)COc2ccc(Cl)cc2C)c(C)n1 (stereo not given),x,>57
O=C(NCc1ccco1)Nc1ccc(Br)cc1Cl,0.7%,>57
Cc1cc(N2CCN(C3CCCC3)CC2)n2ncc(-c3ccccc3)c2n1,-7.5%,>57
O=S1(=O)C=CC(Nc2cccc(Cl)c2)C1 (stereo not given),x,>57
Cc1nc2cnc(N3CCN(C)CC3)nc2n(Cc2cccs2)c1=O,2.5%,>57
CN1C(=O)c2cccc(N(C)C)c2C1=O,-5.0%,>57
CN(C)CCCNc1oc(-c2ccc(Cl)cc2)nc1C#N,-6.3%,>57
O=C(O)C1CC=CCC1C(=O)NC12CC3CC(CC(C3)C1)C2 (stereo not given),2.8%,>57
COc1ccc(NC(=O)c2ccccc2NC(=O)c2ccco2)c(OC)c1,u,>57
O=C(Cn1cc2c(n1)CCCC2)NCCCN1CCN(C2CCCCC2)CC1,2.0%,>57
COc1ccccc1N1C(=O)CCC1(C#N)c1ccccc1 (stereo not given),-16.0%,x
COC(=O)c1ccc(C2C(C#N)=C(N)Oc3cc(C)n(C)c(=O)c32)cc1 (stereo not given),u,>57
Cn1c(=N)n(CC(=O)O)c2ccccc21,-6.1%,>57
CCOC(=O)N1CCC(n2c(=S)[nH]c3cc(OCC)c(OCC)cc3c2=O)CC1,-4.4%,>57
Cc1c(C(=O)Nc2ccc3c(c2)OCCO3)sc2nc(-c3ccccc3)cn12,10µM*,>57
CC1CCC(NC(=O)Cn2c(=O)[nH]c3ccsc3c2=O)CC1 (stereo not given),14.3%,>57
O=C(N1CCOCC1)N1CCN(c2nc(-c3ccc(F)cc3)cs2)CC1,-11.8%,>57
CC(C)CCn1c(Sc2nc3ccccc3s2)nc2c1c(=O)[nH]c(=O)n2C,0.1%,>57
CC1(C)CC(C(CC(=O)O)c2ccccc2)CCO1 (stereo not given),-1.3%,>57
Cn1c(=O)c(C(=O)CSc2nncs2)c(N)n(Cc2ccccc2)c1=O,9.9%,>57
CCOC(=O)c1cnn(CC2CCCCC2)c1N,-7.8%,x
O=C(NC1CCCCC1)N1CCCC(c2nc(-c3ccc(S(=O)(=O)N4CCCC4)cc3)no2)C1 (stereo not given),-14.3%,>57
O=S(=O)(Nc1ccc2c(c1)CCC2)c1cccs1,u,>57
Nn1c(SCC(=O)Nc2ccc3c(c2)OCO3)nnc1-c1ccncc1,x,>57
CCCCn1c(SCC(=O)c2ccc3c(c2)OCCO3)nnc1-c1ccco1,-10.2%,>57
CC(C)OCCCn1c(=S)[nH]c2cc3c(cc2c1=O)OCO3,u,>57
COc1ccc(NC(=O)N(CCCN2CCOCC2)Cc2cccnc2)c(OC)c1,-1.0%,>57
Cc1ccc(S(=O)(=O)CNC(=O)c2ccccc2)cc1,-4.1%,>57
COc1ccc(-c2noc(N3CCC(C(=O)N4CCN(c5ccccn5)CC4)CC3)n2)cc1,-1.8%,>57
COc1ccc(/C(O)=C2/C(=O)C(=O)N(CCCN(C)C)C2c2cccnc2)cc1 (stereo not given),12.5%,>57
CCn1nc(-c2cccs2)nc2c(=O)n(C)c(=O)nc1-2,u,>57
CCCc1nc(SCC(=O)N2CCN(c3ccccc3)CC2)c2c(=O)n(C)c(=O)n(C)c2n1,-1.9%,>57
CCOC(=O)Nc1cccc2ccccc12,-2.4%,>57
O=C(Nc1ccccc1C(=O)N1CCOCC1)c1noc2c1CCCC2,1.1%,>57
Cc1ccc2c(c1)C(N1CCCC1=O)CC(c1ccco1)N2 (stereo not given),2.7%,>57
Cc1ccc(Cl)cc1N1CCN(S(=O)(=O)c2ccc3c(c2)OCCO3)CC1,u,>57
CN(C)Cc1ccccc1-c1ccc2ncnc(NCc3ccccc3)c2c1,-8.4%,>57
CCN1CCN(c2nc3c(c(=O)n(C)c(=O)n3C)n2CCSc2ncccn2)CC1,-4.7%,>57
O=c1[nH]c2cc3c(cc2cc1CN(CCCO)Cc1nnnn1Cc1ccc(F)cc1)OCO3,-16.8%,>57
CC(NC(=O)Oc1ccccc1)C(c1cccs1)N1CCOCC1 (stereo not given),2.3%,>57
Cc1ccccc1C(=O)Nc1cccc(-c2nnc(SCC(=O)O)n2C)c1,6.9%,>57
COC(=O)c1ccc(CSc2nnnn2-c2ccccc2)o1,21.8%,>57
Cc1c(C(=O)N2CCN(S(C)(=O)=O)CC2)oc2ccccc12,-0.2%,>57
CCCCNc1nc(C)nc2c1nc(-c1ccccc1)n2CCN(C)C,9.3%,x
Nc1ccccc1OCCOCCOCCOc1ccccc1N,-2.2%,>57
O=C(NCc1ccccc1)NC(=O)c1ccccc1,x,>57
O=C(OCc1c(Cl)cccc1Cl)c1cccnc1,13.0%,>57
O=C(CN1CCN(Cc2ccccc2)CC1)c1ccc(Br)cc1,29.9%,>57
CCOC(=O)N1CCC(n2c(=S)[nH]c3cc(OC)c(OC)cc3c2=O)CC1,1.7%,>57

Later entries.
SMILES,LT uptake inh,SmPrx2 inh
O=C(Cc1cccs1)Nc1cccnc1,8.8%,>57
CCCOC(=O)c1ccccc1C(=O)OCCC,3.4%,x
O=C(N1CCN(c2ccccc2)CC1)C12CC3CC(CC(C3)C1)C2,9.0%,>57
CN(C1CCCCC1)S(=O)(=O)Cc1ccccc1,-13.5%,>57
O=C(CSc1nnnn1-c1ccc2c(c1)OCCO2)N1CCc2ccccc21,-4.1%,>57
CC(C)NS(=O)(=O)c1ccc(CCC(=O)N2CCOCC2)cc1,-13.0%,>57
O=C(Nc1ccc(Nc2ccccc2)cc1)C1CC1,3.6%,>57
COC(=O)C1C(=O)C2=C(CC1C)NC(=O)CC2c1ccc(O)c(OC)c1 (stereo not given),0.0%,>57
CN1CCCC(OC(=O)COc2ccccc2)C1 (stereo not given),-0.8%,>57
Cn1c(=O)n(CCCOc2ccc(Br)cc2)c2ccccc21,-2.9%,>57
CCOC(=O)CSc1cc(C)nc(NC(C)=O)n1,-5.0%,>57
CCCC(=O)Nc1c(C)nn(C(=O)CCC)c1C,-4.2%,x
CCCCN(CC)S(=O)(=O)c1ccc(C(=O)Nc2nnc(CSC)o2)cc1,8.1%,>57
CCn1ncc(Cl)c1C(=O)NC(C)c1ccccc1 (stereo not given),x,>57
COCCNc1nc(C)nc2c1nc(-c1ccccc1)n2C1CCN(Cc2ccccc2)C1 (stereo not given),-10.6%,x
c1ccc2c(c1)Oc1ccccc1S2,-13.0%,x
CCOC(=O)CSc1ccc2nnc(-c3cccs3)n2n1,14.0%,>57
O=C1C2C3C=CC(C3)C2C(=O)N1c1n[nH]c(CCc2ccccc2)n1 (stereo not given),5.1%,>57
COc1ccc(N(Cc2cc(=O)[nH]c3ccccc23)C(=O)c2ccco2)cc1,9.1%,>57
N=C(N)SCc1ccc(Cl)c2ccccc12 (tested in a mixture with another compound),u,>57&>57
CCCn1nnc(NC(=O)Cc2ccc(Cl)cc2)n1,-1.1%,>57
Cc1occc1C(=O)NCc1ccc2c(c1)OCO2,-5.3%,x
Cc1ccc(CCNC(=O)C2CCCN(C(=O)c3cc4sccc4n3C)C2)cc1 (stereo not given),-17.1%,>57
CCNC(=O)CC1C(=O)N(c2ccc(C)cc2)C(=O)N1Cc1ccccn1 (stereo not given),7.1%,>57
COc1cc2c(cc1OC)C(c1ccco1)CC(=O)N2 (stereo not given),2.1%,>57
CN1[C@@H](C[C@@H](O)c2ccccc2)CCC[C@@H]1C[C@H](O)c1ccccc1,u,>11.4
Nn1c(COc2ccccc2)nc2ccccc2c1=O,8.6%,>57
Cc1cc(NC(=O)c2ccc(S(=O)(=O)N(C)C)cc2)no1,4.5%,>57
Cc1nc2cc(C(=O)O)ccc2n1-c1ccccc1,-6.5%,>57
O=C(CSc1nc2ccccc2c(=O)n1CC1CCCO1)N1CCN(c2ccccc2)CC1 (stereo not given),-10.0%,>57

3 of these compounds, reformatted.
> Cc1nc2cc(C(=O)O)ccc2n1-c1ccccc1
- LT uptake inh: -6.5%
- SmPrx2 inh: >57
> Cc1occc1C(=O)NCc1ccc2c(c1)OCO2
- LT uptake inh: -5.3%
- SmPrx2 inh: x
> COc1cc2c(cc1OC)C(c1ccco1)CC(=O)N2 (stereo not given)
- LT uptake inh: 2.1%
- SmPrx2 inh: >57

(listing goes on)
SMILES,LT uptake inh,SmPrx2 inh
Cc1nc2nc(SCC(=O)N3CCOCC3)nn2c(C)c1Cc1ccccc1,3.6%,>57
O=C(CSc1nnc2ccccn12)c1ccc(OC(F)F)cc1OC(F)F,-6.2%,>57
COc1ccc(CC(=O)Nc2cccc(-c3nnc(-c4ccccc4)o3)c2)cc1OC,10µM*,>57
CC(=O)c1c(C(C)=O)c(C)n(CCCCn2c(C)c(C(C)=O)c(C(C)=O)c2C)c1C,-3.5%,>57
O=C1CC(N(Cc2ccco2)C(=O)Nc2ccc(F)cc2)C(=O)N1c1ccc(F)cc1 (stereo not given),-21.1%,>57
CN1C(=O)N(C)C(=O)C(CCc2ccncc2)(Cc2ccc3c(c2)OCO3)C1=O,-18.0%,>57
Cn1c(C(=O)NC2CCCC2)cc2c(=O)n(C)c3ccccc3c21,5.2%,>57
O=C(NCC1CCCO1)C1c2ccccc2C(=O)N1Cc1ccc2c(c1)OCO2 (stereo not given),-4.3%,>57
COC(=O)C1=C(N)Oc2cc(C)n(Cc3cccnc3)c(=O)c2C1c1ccccc1OC (stereo not given),7.8%,>57
CCCn1c(=O)c2[nH]c(C3CCCC3)nc2n(CCCOC(=O)c2ccc(S(=O)(=O)F)cc2)c1=O,u,>57

Grouped by structure: the compounds so far with bromine
SMILES,LT uptake inh,SmPrx2 inh
O=C(NCc1ccco1)Nc1ccc(Br)cc1Cl,0.7%,>57
O=C(CN1CCN(Cc2ccccc2)CC1)c1ccc(Br)cc1,29.9%,>57
Cn1c(=O)n(CCCOc2ccc(Br)cc2)c2ccccc21,-2.9%,>57

More structures follow.
SMILES,LT uptake inh,SmPrx2 inh
Cn1c(C(=O)NCCN2CCN(Cc3ccccc3)CC2)cc2c(=O)n(C)c3ccccc3c21,-1.8%,>57
CC(C)CNC1=CC(=O)CC(c2ccco2)C1 (stereo not given),11.9%,x
COc1ccc2[nH]cc(CCNc3cc(-c4c(C)noc4C)ncn3)c2c1,-12.1%,>57
CCN(CC)c1ccc(NC(=O)Cn2nnc(-c3cccc(OC)c3OC)n2)c(C)c1,u,>57
CNC(=O)c1ccccc1NC(=O)c1ccc(C)c(S(=O)(=O)N2CCCCC2)c1,21.9%,>57
O=C(CN1CCN(Cc2ccc(F)cc2Cl)C1=O)NCCCN1CCOCC1,-1.6%,>57
CC1=C(C(=O)Nc2ccccc2C)C(c2cccnc2)n2nc(CCCO)nc2N1 (stereo not given),2.9%,>57
O=c1oc2c(CN3CCOCC3)c(O)ccc2c2c1CCC2,26.0%,>57
COc1ccc(NC(=O)C2CC(=O)N(C(C)C)C2)cc1 (stereo not given),-4.9%,>57
CCOc1ccccc1N1CCN(S(=O)(=O)c2ccc(Cl)s2)CC1,u,>57
CCCCOCC1CN(c2ccccc2)C(=O)CS1 (stereo not given),8.6%,>57
CC(=O)Oc1ccc(N2C(=O)C3C(C2=O)C2(C)C=CC3(C)O2)cc1 (stereo not given),u,x
N#CCCn1c(=O)c(-c2ccc(Cl)cc2)nc2cnc(N3CCOCC3)nc21,u,>11.4
Cc1cc(N2CCN(C(c3ccccc3)c3ccc(Cl)cc3)CC2)n2ncnc2n1 (stereo not given),u,>57
O=C(CSc1nnc(-c2ccc(Br)cc2)o1)N1CCN(C(=O)c2ccco2)CC1,-8.3%,>57
CCCCN(C)CCNC(=O)c1ccc2c(c1)NC(=O)C(N1CCCCC1)S2 (stereo not given),-6.4%,>57
COc1ccc(CCNC(=O)CN2C(=O)C3(OCCCO3)c3ccccc32)cc1OC,u,>57
C=CCNC(=O)c1nn2cccnc2c1Cl,3.4%,>57
NP(N)(=O)NC(=O)c1ccc(F)cc1,u,>57
CCOC(=O)N1CCN(Cc2nc(-c3ccccc3)no2)CC1,0.0%,>57
COc1cccc(C(=O)N(Cc2nc(-c3cccc(C)c3)no2)C(C)C)c1OC,u,>57
O=C(Cn1c(NCCO)nc2ccccc21)c1ccc(Cl)cc1,11.6%,>57
COc1cccc(N(CC(=O)N2CCN(C)CC2)S(=O)(=O)c2ccc(C)cc2)c1,10.1%,>57
COc1ccc(-c2nnc(SCc3csc(N)n3)n2C)cc1,x,>57
CC[C@]1(OC(=O)CN)C(=O)OCc2c1cc1n(c2=O)Cc2cc3ccccc3nc2-1,-14.7%[8 µM],>57
CC(C)OCCCNc1ncnc2c1[nH]c1ccc(F)cc12,1.0%,>57
COc1ccc(C2N(c3ccccn3)C(=O)C3CCCN32)c(OC)c1 (stereo not given),-5.6%,>57
CC(C)Cc1nc(S(=O)(=O)c2ccc(Cl)cc2)c(N2CCOCC2)o1,-3.1%,>57

Only part of the results is shown. The share of hits here may be higher or lower than overall.
